# MgrA DNA FP = S. aureus MgrA activity modulators, primary screen, biochemical, S. aureus Newman, fluorescence polarization; MgrA-DNA binding; inhibition, %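 (about 10 µg/mL by stock and volumes)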; 84,000 compounds, 0.13% hits; AID 602314, 2012;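 active = above 50% in either of two replicates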;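 also: 0% = protein plus DNA without compound and 100% = DNA alone without protein; higher means less MgrA bound to DNA so lower polarization; one replicate is shown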
# S aureus helic = inhibitors of S. aureus replicative helicase, primary screen, biochemical, fluorescence unwinding readout; replicative DNA helicase (DnaC/DnaB), Staphylococcus aureus; AID 485395, 2010; purified S. aureus helicase, fluorescence unwinding assay; about half of the hits fall short of the stated cut; inhibition, %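 (tested at about 80 µM)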; 120,000 compounds, 0.05% hits;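 active = both duplicates at 50% or more, or one of them with a favoured structure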;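 also: 0% = mean of negative control wells and 100% = mean of positive control wells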
# * marks the source's active call; other numbers are inactive results; · = not tested or not shown; & = joins results of further samples. The list is partial. The share of hits here may be higher or lower than overall.
MgrA DNA FP	S aureus helic	molecule
0.4	18.0	O=c1nc(-c2ccccc2)c2cc(SC(F)F)ccc2[nH]1
3.8	12.0	NCc1noc(-c2ccccc2)n1
·	10.0	CC(c1ccccc1)N1CC(C(=O)O)CC1=O (stereo not drawn)
-1.1	1.0	O=C(Cc1ccc(-n2c(=O)[nH]c3ccsc3c2=O)cc1)Nc1ccc(-c2ccccc2)cc1
·	3.0	O=C(CSc1nc2cc(C(=O)NCc3ccco3)ccc2c(=O)n1Cc1ccco1)c1ccccc1
·	10.0	CCCn1ccc2c(OCC(=O)Nc3ccc(NC(C)=O)cc3)cccc2c1=O
·	-3.0	CC(C(=O)Nc1ccc(C(N)=O)cc1)N1CCC(c2nc3ccccc3o2)CC1 (stereo not drawn)
-0.8	15.0	CCOC(=O)C1=C(O)c2ccccc2NC(=O)C1
-1.3	·	C=Cc1c(S(C)(=O)=O)sc(C(=O)Oc2ccccc2)c1C
·	-3.0	CCN(CC)C(=O)CSc1n[nH]c(-c2cccs2)n1
2.5	18.0	O=C(/C=C/c1ccco1)OCC(=O)N1CCC(Cc2ccccc2)CC1
·	-31.0	CN(C)c1ccc(C(O)C(=O)c2cccs2)cc1 (stereo not drawn)
14.6	·	N#Cc1c(=O)c2ccccc2n2c1[nH]c1ccccc12
·	2.0	O=C(Nc1cccc(OC(=O)c2cccnc2)c1)c1cccnc1
-1.0	·	COC(=O)c1ccc(NC(=O)C2CC(=O)N(Cc3ccc(OC)cc3)C(=Nc3ccccc3)S2)cc1 (stereo not drawn)
-1.4	·	CCNc1ccc(Br)cc1-c1nc2ccccc2n(CC)c1=O
2.2	6.0	N#Cc1c(N)c2ccccn2c1C(=O)c1ccc(Br)cc1
·	9.0	CC1CCN(C(=O)c2ccc(C(=O)N3CCC(C)CC3)cc2)CC1
·	-11.0	O=C1CSC(c2cccnc2)N1CC1CC1 (stereo not drawn)
·	9.0	Cn1cnc2cc(-c3n[nH]c(=O)c4ccccc34)ccc21
-0.7	·	Cc1nc(N)nc(SCc2ccccc2Cl)c1Cl
·	-26.0	Cc1nc(NCc2ccc(F)cc2)nc2c1C(=O)c1ccccc1-2
·	23.0	CCOC(=O)C(C)Sc1nnc(NC(=O)c2c(F)cccc2Cl)s1 (stereo not drawn)
-3.2	·	CC(=O)Nc1ccc(S(=O)(=O)NC2CCN(Cc3ccccc3)CC2)cc1
·	-5.0	O=C(Cn1ncn2nc(-c3ccccc3)cc2c1=O)N1CCCC1
·	-8.0	Cc1cc(C)cc(C(=O)NCC(=O)OCN2C(=O)c3ccccc3C2=O)c1
-0.9	13.0	CNC(=S)N1CCN(c2cccc(C)c2C)CC1
·	8.0	CCC(=O)Nc1nnc(SCC(=O)Nc2ccc3c(c2)OCO3)s1
-2.3	·	CCOC(=O)c1sc(NC(=O)c2cc(=O)c3ccccc3o2)c(C(=O)OCC)c1C
·	19.0	O=C(NCC(=O)N1CCN(C2CCS(=O)(=O)C2)CC1)c1sc2ccccc2c1Cl (stereo not drawn)
·	-3.0	CCN1CCN(C(c2cccs2)C(C)NC(=O)c2ccncc2)CC1 (stereo not drawn)
1.1	·	Cc1nn(-c2ccccc2)c(C)c1CS(=O)(=O)c1ccccc1
·	-4.0	COC(=O)c1ccc(CSc2nc3c(cnn3-c3ccc(Cl)cc3)c(=O)[nH]2)o1
-2.2	20.0	Cc1ccc(N2C(=O)CC(N3CC4(C)CC3CC(C)(C)C4)C2=O)cc1 (stereo not drawn)
0.3	7.0	COc1ccc(C2C=C(c3ccc(F)cc3)NC(=S)N2)cc1OC (stereo not drawn)
-0.3	7.0	O=S(=O)(c1ccccc1)N1N=C(c2ccccc2)CC1c1ccco1 (stereo not drawn)
4.4	7.0	CC1CCC/C(=C\c2ccc3c(c2)OCO3)C1=O (stereo not drawn)
-0.9	14.0	O=C(Nc1ccc(-c2nnn(CC(=O)N3CCN(C(=O)c4ccco4)CC3)n2)cc1)c1ccccc1F
1.5	6.0	COc1cc2c(cc1OC)C(C)N(S(=O)(=O)c1ccc(C)cc1)CC2 (stereo not drawn)
·	1.0	OC(COc1ccc(Cl)cc1)(c1nnc(-c2ccccc2)o1)c1nnc(-c2ccccc2)o1
·	-18.0	O=C(Cc1ccccc1)Nc1ccc(O)c(-c2nc3ccccc3s2)c1
·	1.0	Cc1ccc(CNC(=O)c2cc3c(s2)-c2ccccc2OC3)cc1
0.4	4.0	CCOC(=O)c1ccc(NC(=O)c2c(NCc3ccc(C)o3)sc3c2CCCC3)cc1
0.0	-6.0	OCc1c(Cl)nc2sccn12
0.8	-14.0	COc1cc2c(C(=O)O)c(C)oc2cc1Br
·	-16.0	Cc1nc2sc(C(c3ccc(F)cc3)N3CCC(O)CC3)c(O)n2n1 (stereo not drawn)
-0.1	14.0	O=C(COc1ccc(Br)cc1)N(CCO)CCO
3.0	·	O=c1oc2c(Cl)cc(Cl)cc2cc1-c1nc2ccccc2[nH]1
6.8	10.0	Brc1cc2c(cc1/C=N/c1c(-c3ccco3)nc3ccccn13)OCO2
·	19.0	CC(C)(C)c1ccc(-c2nnc3sc(-c4ccccn4)nn23)cc1
0.4	·	N/C(CSCc1ccco1)=N\O
·	6.0	CCN(CC)S(=O)(=O)c1cccc(-c2nnc(SCC(=O)Nc3cc(C)on3)o2)c1
-0.6	10.0	COc1ccc2nc(SCC(=O)Nc3cc(F)ccc3F)[nH]c2c1
2.3	·	Cn1c(=O)c2c(nc(N3CCN(Cc4ccccc4)CC3)n2Cc2cccc(Cl)c2)n(C)c1=O
0.3	15.0	CC(=O)Nc1ccccc1-c1nc2ccc(C(=O)N3CCC(Cc4ccccc4)CC3)cc2[nH]c1=O
14.2	12.0	CCOC(=O)c1ccc(N2N=C(C(F)(F)F)/C(=C/c3ccc(OCC)c(OCC)c3)C2=O)cc1
-1.3	11.0	CN(C)c1ccc(C2OC(COc3ccccc3)CN(C(=O)c3ccccc3)O2)cc1 (stereo not drawn)
·	0.0	NNC(=O)c1cccc(C(=O)NN)n1
-1.6	·	CCOC(=O)c1c(C)n(-c2ccccc2)c2c1cc(OC(=O)COc1ccccc1)c1ccccc12
0.0	·	C1CCN(c2nc(N3CCCCC3)nc(N3CCCCC3)n2)CC1

# Next section:
MgrA DNA FP	S aureus helic	molecule
-1.6	9.0	CC(C)NC(=O)c1ccc(-c2ccccc2)cc1
-4.5	13.0	CN1C(=O)c2ccccc2N(C)C1c1cccs1 (stereo not drawn)
1.4	·	Cc1ccc2ccc(S(=O)(=O)N3CCCCC3)cc2c1
·	-6.0	CC(=O)Nc1ccc2c(Cn3ncc(Cl)c(Cl)c3=O)cc(=O)oc2c1
·	10.0	Fc1ccc(C(Nc2ccccn2)c2c[nH]c3ccccc23)cc1 (stereo not drawn)
-0.8	9.0	CCSc1nc(O)cc(=O)n1CC
0.2	13.0	NC(=O)C1CCN(S(=O)(=O)c2ccccc2)CC1
·	-2.0	CCOC(=O)c1c(NC(C)=O)sc2c1CCN(C(C)C)C2
·	11.0	COc1ccc(N2CCN(c3nn(C)c(=O)n(C)c3=O)CC2)cc1
·	-2.0&1.0	Clc1ccc(C2=CC(c3ccco3)n3ncnc3N2)cc1 (stereo not drawn)
0.1	18.0	CCC(=O)Nc1ccc(C(=O)c2ccccc2)cc1
·	-36.0	Nc1ccc2c(c1)COC2=O
·	-4.0	O=C(O)C1Cc2ccccc2CN1S(=O)(=O)/C=C/c1ccccc1 (stereo not drawn)
·	19.0	CCn1c2c(c(=O)[nH]c1=O)C(c1ccccc1)C1=C(N2)c2ccccc2C1=O (stereo not drawn)
·	2.0	O=C1C=C/C(=N/N(Cc2ccccc2)c2ccccc2)O1
2.8	2.0	Cc1ccc(N(CC(N)=O)C2SC(=O)N(c3ccccc3)C2=O)cc1 (stereo not drawn)
·	-18.0	Nc1nc(COC(=O)/C=C/c2cc(Cl)c3c(c2)OCCO3)nc(Nc2ccccc2)n1
·	-8.0	Nc1nnc2cc(C(=O)c3cc(F)ccc3O)cnn12
3.4	-3.0	CC(C)Oc1ccc(C2CC(=O)NNC2=O)cc1 (stereo not drawn)
-0.9	·	CCOC(=O)c1ccc(NC(=S)NCCc2ccc(OC)c(OC)c2)cc1
-1.4	-13.0&0.0	c1ccc2[nH]c(CSc3nc4ccccc4o3)nc2c1
-5.2	·	CCOC(=O)CSc1nncc(=O)[nH]1
0.7	7.0	CCN(CC)C(=S)SC1=CCS(=O)(=O)C1
-1.3	9.0	COc1cc(C2C(C#N)=C(N)OC3=C2C(=O)CC(C)(C)C3)ccc1OCC(=O)Nc1ccccc1C (stereo not drawn)
-2.5	·	OCCNC1CCCc2c1[nH]c1ccc(Br)cc21 (stereo not drawn)
·	-3.0	COCCN=C1NN=C(c2ccc(C(C)(C)C)cc2)CS1
·	4.0	O=C(NCCN1CCOCC1)C1(c2cccs2)CCOCC1
1.0	·	O=C(Nc1ccc(Cl)cc1)C1=Cc2ccccc2OC1
3.7	·	Cc1nn(C(=O)c2ccccc2Cl)c(C)c1N=Nc1ccc(Cl)cc1
0.6	1.0	Cc1c(OC(C)C)ccc2c3c(c(=O)oc12)CCC3

# Looked up above:
# `COCCN=C1NN=C(c2ccc(C(C)(C)C)cc2)CS1` – S aureus helic = -3.0
# `CCC(=O)Nc1ccc(C(=O)c2ccccc2)cc1` – S aureus helic = 18.0
# `Cc1ccc(N(CC(N)=O)C2SC(=O)N(c3ccccc3)C2=O)cc1` (stereo not drawn) – MgrA DNA FP = 2.8

# Some of the entries above in a different format.
# The line under a structure holds: MgrA DNA FP, S aureus helic
> Cc1ccc2ccc(S(=O)(=O)N3CCCCC3)cc2c1
  1.4, ·
> CC(=O)Nc1ccc2c(Cn3ncc(Cl)c(Cl)c3=O)cc(=O)oc2c1
  ·, -6.0
> Fc1ccc(C(Nc2ccccn2)c2c[nH]c3ccccc23)cc1 (stereo not drawn)
  ·, 10.0
> CCSc1nc(O)cc(=O)n1CC
  -0.8, 9.0
> NC(=O)C1CCN(S(=O)(=O)c2ccccc2)CC1
  0.2, 13.0

# Next records.
MgrA DNA FP	S aureus helic	molecule
·	2.0	CCCCCCCc1c(C)[nH][nH]c1=O
0.8	·	CCOc1ccc2sc(C=NCc3cccnc3)c(O)c2c1
-2.9	3.0	COc1ccc(-c2nc(NCC3CCCO3)c3ccccc3n2)cc1 (stereo not drawn)
3.0	1.0	COc1cccc(NC(=O)c2ccc(CN3CCN(c4ccccc4)CC3)cc2)c1
0.7	-1.0	C=CCc1c(C)nc(-c2ccccc2)nc1NN
-1.8	-1.0	CC(C)C(=O)NCCc1nc2ccccc2[nH]1
0.2	9.0	CC(=O)Nc1nnc(C(C)C)s1
·	-21.0	Cc1c(Cl)cccc1NC(=O)c1cc2ccccc2oc1=O
·	-9.0	CC1=Nc2ccccc2N=C(NC(=O)CSc2nnnn2-c2ccccc2)C1c1ccccc1 (stereo not drawn)
·	-12.0	Cc1occc1-c1nnc(SCC(=O)N(Cc2ccccc2)C(C)(C)C)n1C
·	4.0	Cc1nc(N2CCN(C)CC2)sc1-c1ccccc1
·	6.0	CCOCCCNc1nc2ccccc2nc1NS(=O)(=O)c1cccc2nsnc12
1.9	10.0	CCNc1nc(OC)nc(Oc2ccc(/C=N/O)cc2)n1
·	-1.0	O=c1[nH]c2ccccc2n1C1CCCCC1
·	-14.0	COC(=O)c1cc(S(=O)(=O)N2CCC(Cc3ccccc3)CC2)oc1C
·	28.0	CCCNC(=O)NC1CCN(c2nc(C)cc(C)n2)CC1
·	2.0	O=C(COc1ncnc2ccccc12)c1ccc2c(c1)OCCO2
1.3	·	CCOCCOC(=O)C1=C(C)NC2=C(C(=O)CC(c3ccc(OC)cc3)C2)C1c1ccccc1Cl (stereo not drawn)
2.4	·	FC(F)(F)Oc1ccc(NCn2nnc3cc(Cl)ccc32)cc1
1.5	16.0	CC(N)c1ccc2c(c1)CCCC2 (stereo not drawn)
·	5.0	Cn1cnnc1SCC(=O)n1c2ccccc2c2ccccc21
-2.4	0.0	Cc1ccc(-n2[nH]c(C)c(C=Nc3ccc(C)cn3)c2=O)cc1
·	-8.0	O=C(c1ccco1)N1CCC(c2nc3ccccc3s2)CC1
4.8	24.0	Cc1c(Cl)cccc1NC(=O)CCn1cnc2ccccc2c1=O
·	15.0	c1ccc(-n2ncc3c(N4CCCCCC4)ncnc32)cc1
·	-2.0	Fc1c(F)c(F)c(Sc2nnc(-c3cccs3)n2CC2CCCO2)c(F)c1F (stereo not drawn)
1.1	7.0	Cc1ccccc1NS(=O)(=O)c1ccc(N2CCCC2=O)cc1
-1.1	-5.0	COc1ccc(OCCC(=O)OCc2ccccc2)cc1
·	-27.0	CCc1cc2c(=O)c(-c3nc4ccccc4n3C)c(C(C)C)oc2cc1O
2.0	11.0	O=c1oc2c3ccccc3oc(=O)c2c2ccccc12
1.8	5.0	CN(C1=NC(=O)/C(=C\c2ccccc2Cl)S1)c1ccc(O)cc1
2.1	-7.0	O=C(O)CCN1C(=O)/C(=C/c2ccccn2)SC1=S
-0.6	11.0	Cc1ccc2nc3ccc(N4CC(C)CC(C)C4)nn3c(=O)c2c1 (stereo not drawn)
·	15.0	CC(c1ccccc1)C(CC(=O)O)C(=O)NC1CCCCC1 (stereo not drawn)
2.2	·	Cc1ccc(C(=O)Cn2c3c(sc2=N)CCCC3)cc1

# Some of these compounds in order of formula weight, lowest first.
MgrA DNA FP	S aureus helic	molecule
2.2	·	Cc1ccc(C(=O)Cn2c3c(sc2=N)CCCC3)cc1
2.1	-7.0	O=C(O)CCN1C(=O)/C(=C/c2ccccn2)SC1=S
·	15.0	CC(c1ccccc1)C(CC(=O)O)C(=O)NC1CCCCC1 (stereo not drawn)
-0.6	11.0	Cc1ccc2nc3ccc(N4CC(C)CC(C)C4)nn3c(=O)c2c1 (stereo not drawn)
1.8	5.0	CN(C1=NC(=O)/C(=C\c2ccccc2Cl)S1)c1ccc(O)cc1
